Screens from PubChem BioAssay.
Tg IFNy HTS: T. gondii growth inhibition with IFN-gamma, primary screen, cell-based. Toxoplasma gondii growth in IFN-gamma-treated host cells; hits give low values; reference of the scale not given here. activity change, negative = inhibition, %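 (about 20 µM by stock and volumes)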. 3.8% of 69,000 active. AID 1259416, 2018;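 active means below -70%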;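 further: host cells are HeLa cells infected with Toxoplasma gondii; parasite growth read as luciferase light; one replicate is shown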
* = called active by the depositor; & = joins results of further samples. A portion of the library. The share of hits here may be higher or lower than overall.

Start of the data: the first five records, to show the layout:
SMILES	Tg IFNy HTS
COc1cc(NCC2CNCCOC2)ncn1 (stereo not given)	7.9
COc1ccc(-c2nnn(Cc3ccc(Cl)cc3)n2)cc1OC	7.2
O=C(CCCc1nc(-c2cccnc2)no1)Nc1cnc2n1CCCC2	6.4
Cn1cc(C(=O)N2CC[C@@H]3[C@H]2CCN3Cc2cccs2)cn1	-8.6
O=S(=O)(c1ccc2c(c1)CCCC2)N1CCC2(CC1)Nc1cc(F)ccc1-n1cccc12	3.2

The whole of this part (from the top)
SMILES	Tg IFNy HTS
COc1cc(NCC2CNCCOC2)ncn1 (stereo not given)	7.9
COc1ccc(-c2nnn(Cc3ccc(Cl)cc3)n2)cc1OC	7.2
O=C(CCCc1nc(-c2cccnc2)no1)Nc1cnc2n1CCCC2	6.4
Cn1cc(C(=O)N2CC[C@@H]3[C@H]2CCN3Cc2cccs2)cn1	-8.6
O=S(=O)(c1ccc2c(c1)CCCC2)N1CCC2(CC1)Nc1cc(F)ccc1-n1cccc12	3.2
CCOCC1CC2(COCCN2C(=O)c2cc(C)oc2C)CO1 (stereo not given)	4.7
Cc1cccc2c1nc(-c1ccccc1)n1cnnc21	16.5
CCN1c2ccc(F)cc2C(=O)NC12CCN(C(=O)c1cc(OC)cc(OC)c1)CC2	-21.7
CCc1cc2ccc(C)cc2nc1SCC(=O)c1ccc(NC(C)=O)cc1	-11.3
COc1cc(CNC(=O)C2(C)CCN(C(=O)Cc3ccc(C)cc3)CC2)cc(OC)c1	37.5
Cc1cnc(NCCCN2CCCC2)nc1N(C)C	-8.1
COc1ccc(F)c(F)c1-c1nccn1C(C)Cn1nc(C)cc1C (stereo not given)	0.2
Cc1nc(C(C)C)ncc1C(=O)N1CCC2(CN(C)C(=O)O2)C1 (stereo not given)	-56.7
Cc1ccccc1-c1noc(-c2c(O)c3ccc(F)cc3n(C)c2=O)n1	-20.6
C=CCNc1sc(C(=O)c2ccc(Cl)cc2)c(N)c1C#N	-44.9
CN(Cc1ncc[nH]1)Cc1ccccc1-c1ccccc1	-2.3
CCCC(=O)Nc1ccc2c(c1)C(=O)N(C)[C@@H]1CC[C@H](CC(=O)NCc3cccc(F)c3)O[C@@H]1CO2	-41.0
CCO[C@@H]1CC[C@@H]2[C@H]1OCCN2C(=O)/C=C/c1cccs1	87.4
O=C(c1ccc(F)cc1)N1CC(=O)N2[C@H](C1)[C@H](c1ccc(C#CCC3CCCC3)cc1)[C@@H]2CO	-52.2
COCCC(=O)N1CC2CN(Cc3ccc[nH]3)CC2C1 (stereo not given)	68.0
O=S1(=O)Nc2cccc3cccc1c23	2.9
Cc1cc(C)n(C2CC(=O)N(c3ccc(Br)cc3)C2=O)n1 (stereo not given)	-12.0
COc1ccc(CNC(=O)C2CCCN(Cc3nc(-c4cccc(C)c4)oc3C)C2)cc1 (stereo not given)	-82.6*
CN(C)C(=O)c1nc2c(s1)CCCN2c1ncccn1	78.2
O=C(CN1CCOCC1)N[C@H]1CC[C@H](CCn2cc(C3CC3)nn2)O[C@H]1CO	2.8
COc1ccc(N2CCN(C3CCCN(C(=O)C4(O)CCCC4)C3)CC2)cc1 (stereo not given)	1.4
Cc1noc(C)c1S(=O)(=O)N(C)C[C@@H]1OCc2ccccc2-c2c(n(C)c3ccccc23)C(=O)N([C@@H](C)CO)C[C@H]1C	-39.9
COc1ccccc1OCC(=O)Nc1ccccc1C(=O)NCc1ccco1	28.4
Cc1ccc(CNC(=O)N2CCC3(CC2)NC(=O)c2ccc(Cl)cc2N3C)cc1	94.1
CN(C)C(=O)CCCCCCCCC(=O)N(C)C	2.3
CCN1C[C@H](COC)[C@]2(CCN(C(=O)/C=C/c3cccs3)C2)C1	-2.7
COc1ccc2c3c([nH]c2c1)[C@H](CO)N(C(=O)Nc1ccc(F)cc1)CC31CN(Cc2cc(-c3ccccc3)on2)C1	-18.1
Cc1cccc(S(=O)(=O)N2CCCc3c(c(=O)n(C)n3C)C2)c1	1.3
COCCC(=O)c1ccc2c(c1)C(c1ncn[nH]1)CN2C(=O)c1ccccc1 (stereo not given)	-2.9
O=C1CCCN1[C@@H]1CN(Cc2ccco2)C[C@H]2CCCO[C@H]21	0.4
O=C(NCCc1csc(-c2ccc(Cl)cc2)n1)C(=O)Nc1cc(F)ccc1F	-21.5
COCCN(C(=O)c1ccc(C#N)cc1)c1nnc(C)s1	24.8
CC(=O)N1CCOC2(CCCN(S(=O)(=O)c3ccc(F)cc3)C2)C1 (stereo not given)	-2.7
CN1CCN(C(=O)C[C@H]2CC[C@@H]3[C@H](COC[C@H](O)CN3C(=O)Nc3ccc4c(c3)OCO4)O2)CC1	89.6
COc1cccc(C(=O)NCCC(=O)Nc2cnc3n2CCCC3)c1	2.5
Cc1oc(-c2ccccc2)nc1Cn1nnc(C(=O)Nc2ccc(Br)cc2)c1C	-14.1
CCn1c(C2CCN(c3cc(N4CCOCC4)ncn3)CC2)nn(C)c1=O	-0.1
Cc1oc(-c2ccc(C(F)(F)F)cc2)nc1CN(C)Cc1nc2ccccc2s1	-1.0
CN(C)[C@@H]1C[C@@H](C(=O)O)N(C/C=C/c2ccccc2)C1	-50.0
CC(C)(C)NCC(O)COc1cccc2[nH]c(=O)[nH]c12 (stereo not given)	12.1&22.9
Cc1cc(C)c(NC(=O)c2nnn(Cc3nc(-c4ccc(Cl)cc4)oc3C)c2C)c(C)c1	-48.3
Cc1ccc2c(c1)C(=O)NC1(CCN(C(=O)c3ccc(C(F)(F)F)cc3)CC1)N2C	-56.2
CCN1[C@@H]2c3ccc(-c4ccncc4)c(=O)n3C[C@H]1[C@H](CO)[C@H]2C(=O)NCCc1cn(C)cn1	-40.4
COc1ccc(-c2ccc([C@H]3[C@@H](CO)N4C(=O)CN(C(=O)C5CC5)C[C@@H]34)cc2)cc1	-12.1
CN1C(=O)c2cc(NC(=O)C3CCOCC3)ccc2OC[C@@H]2O[C@@H](CC(=O)NCCc3ccncc3)CC[C@@H]21	6.1

More records follow.
SMILES	Tg IFNy HTS
Cc1cc(SCc2ccc(C(=O)O)cc2)nc(SCc2ccc(Cl)cc2)n1	38.3
Cc1cccc(NC(=O)Nc2ccc(-c3ccccc3)s2)n1	190.8
O=C(Cc1ccc2c(c1)CCC2)NCCN1CCC(O)(c2ccc(F)cc2)CC1	-75.8*
COc1ccc(CCN2C(=O)N(CC(C)C)C(=O)C23CCN(Cc2ccco2)CC3)cc1	-41.9
CC(C)C(CCN1C(=O)CCC1=O)C1CCOC(C)(C)C1 (stereo not given)	-54.6
CN(C)C(=O)N1Cc2nc(C(=O)NCc3cccc(F)c3)oc2C1	7.2
CCc1nccn1CCC(=O)Nc1cc2c(C)cc(=O)oc2cc1C	-3.8
CN1C(=O)CCc2cc(NC(=O)c3ccnn3C)ccc21	8.3
COc1cc(C(=O)OCCn2c(=O)c3c(ncn3CCN(C)C)n(C)c2=O)cc(OC)c1OC	-23.3
O=C(O)c1cnc(N2CC[C@@H](N3CCCCCC3)[C@H](O)C2)c(Cl)c1	3.0
O=C(C[C@H]1CC[C@@H](NC(=O)Nc2ccc(C(F)(F)F)cc2)[C@@H](CO)O1)NCc1cccc(F)c1	-51.7
CC(C)N1CCC2(CCCN(c3cnccn3)C2)CC1	-47.3
FC(F)(F)c1cccc(NN=C2CCSCC2)n1	28.1
Fc1ccc(C2NCCn3cccc32)cc1 (stereo not given)	-2.0
CN1c2ccc(-c3ccccc3)cc2[C@@H]2[C@@H](CCN2C(=O)CC2CC2)[C@@H]1CO	-46.5
O=C(CS(=O)(=O)c1ccccc1)c1ccc2c(c1)OCCO2	102.5
Cn1cnc(S(=O)(=O)N2C[C@@H](O)COC[C@@H]3O[C@@H](CC(=O)NCc4cccc(F)c4)CC[C@H]32)c1	14.7
c1ccc(-c2ccc(-c3nccn3CCCn3ccnc3)cc2)nc1	-1.2
Cc1nn(-c2ccccc2)c2c1c(=O)n(C)c1ccccc21	-41.2
Nc1ccc(S(=O)(=O)Nc2ccnn2-c2ccccc2)cc1	-32.8&-19.4
Cc1ccc(Cl)c(NC(=O)c2cccc(CN3CCC[C@@H]3C(N)=O)c2)c1	1.6
Cc1nc(CC(=O)N2CCCC(O)(CN(C)C)CC2)cs1 (stereo not given)	0.6
COCC(=O)N1CCc2nc(C(=O)N3CCCCC3)sc2CC1	0.5
O=C(NCc1cn2cccnc2n1)c1cn(CCCc2ccccc2)nn1	5.9
Cc1cnn(CC(=O)Nc2nnc(C(C)Oc3cccc(C)c3C)s2)c1 (stereo not given)	-7.9
Cc1noc(C[C@@H]2C[C@@H]3CN(C(=O)Cc4ccc(F)cc4C)C[C@H]3O2)n1	-0.8
CCOc1cccc(CN(Cc2ccccn2)C2CC2)c1	-10.3
Cc1cccc(C(C(=O)NCc2cnc3c(C)cccn23)N(C)C)c1 (stereo not given)	4.4
COc1cccc2ccc(CN3CCC4(CC3)C(=O)N(CCc3ccccc3)C(=O)N4C)nc12	-2.4
O=C(Nc1cccc(Oc2c(F)c(F)c(F)c(F)c2F)c1)N1C[C@@H]2C[C@@H](C1)c1cccc(=O)n1C2	7.8

An excerpt from above in order of length of the SMILES, falling:
SMILES	Tg IFNy HTS
O=C(Nc1cccc(Oc2c(F)c(F)c(F)c(F)c2F)c1)N1C[C@@H]2C[C@@H](C1)c1cccc(=O)n1C2	7.8
Cc1noc(C[C@@H]2C[C@@H]3CN(C(=O)Cc4ccc(F)cc4C)C[C@H]3O2)n1	-0.8
COCC(=O)N1CCc2nc(C(=O)N3CCCCC3)sc2CC1	0.5

Continued.
SMILES	Tg IFNy HTS
O=C(Cc1ccc2ccccc2c1)Nc1ccc(Br)c(C(F)(F)F)c1	41.7
CCOc1ccc(OCCSc2nc3ccccc3[nH]2)cc1	11.6
Cc1nnsc1CN(C)C(=O)c1nc(-c2ccccc2)cs1	-17.2
CC(=O)N1[C@H](CO)[C@H](c2ccc(C3=CCCC3)cc2)C12CN(C(=O)NC(C)C)C2	5.3
CC1CNC(=O)CCN1Cc1cnc(-c2cccc3ccccc23)nc1 (stereo not given)	10.9
C[C@@H]1CN([C@H](C)CO)C(=O)c2c(c3ccccc3n2C)-c2ccccc2CO[C@@H]1CN(C)S(=O)(=O)c1ccc([N+](=O)[O-])cc1	-23.8
CCN1c2cc(C)ccc2-n2cccc2C12CCN(C(=O)Nc1cccc(OC)c1)CC2	-59.3
COc1ccc(-c2nc(NCc3ccccc3Cl)c3ccccc3n2)cc1	-51.4
c1cc(-c2ccc(CN3CCC(c4nnc5n4CCCCC5)CC3)o2)[nH]n1	-0.9
CN(Cc1ccc2nsnc2c1)Cc1cc(-c2ccncc2)no1	-0.5

As a working copy, 2 of the compounds above.
SMILES	Tg IFNy HTS
COc1cc(NCC2CNCCOC2)ncn1 (stereo not given)	7.9
COc1ccc(-c2nnn(Cc3ccc(Cl)cc3)n2)cc1OC	7.2

Later entries
SMILES	Tg IFNy HTS
Fc1ccc(CSc2nc(NCc3ccco3)c3ccccc3n2)cc1	-24.5
O=C(NCCc1csc(-c2ccc(Cl)cc2)n1)c1cccc(F)c1	-50.1
COc1ccc(C2C3CCCCC3(O)CCN2C(=O)c2cccs2)cc1 (stereo not given)	4.6
Cc1sc(N)c(C(=O)c2cccc(C(F)(F)F)c2)c1C	10.2
CNC[C@H]1Oc2ccc(NC(=O)CCC(F)(F)F)cc2C(=O)N([C@@H](C)CO)C[C@H]1C	8.0
O=C(c1ccc(NCc2ccc[nH]c2=O)nc1)N1CCC(N2CCOCC2)CC1	-13.1
COc1ccc(C(=O)N(c2ccc(C(C)C)cc2)C2(C(=O)NCc3ccccc3)CCN(C(C)=O)CC2)cc1	-95.5*
COc1ccc(-c2ccc([C@@H]3[C@H]4CN(C(=O)C5CC5)CC(=O)N4[C@H]3CO)cc2)cc1	-12.1
CCC(C)N(Cc1nc(C)ccc1O)C1CCCC1 (stereo not given)	72.4
CCOC(=O)C(O)(C(=O)OCC)C1Cc2ccccc2C1=O (stereo not given)	16.2
CCC(Oc1cccc(C)c1)C(=O)Nc1nccs1 (stereo not given)	24.1
O=C(CCN1CCCCO1)N1CC(Oc2ccccc2F)C1	3.3
COc1ccc(CNC(=O)C2CCN(C(=O)[C@@H](CC(C)C)NC(=O)OC(C)(C)C)CC2)cc1	76.2
CC(=O)c1[nH]c(C)c(C(=O)N2CCCC3(CNC(=O)O3)C2)c1C (stereo not given)	-0.8
COc1ccc(C2CCCCCN2S(=O)(=O)c2cn(C)cn2)cc1 (stereo not given)	-2.9
Cn1cnc2c(N3CCCC3)nc(C3CCN(S(C)(=O)=O)CC3)cc21	-10.9
Cc1ccc(CN2CCOC3(CCN(C(=O)C4CCOC4)CC3)C2)cc1 (stereo not given)	-3.0
CC1CNCCN1S(=O)(=O)c1cccc2cnccc12 (stereo not given)	-6.4&-2.6
O=C(c1cc(Cl)ccc1Cl)N1CCN(S(=O)(=O)c2cc3c4c(c2)CCN4C(=O)CC3)CC1	10.4
CCCCN(C)CCCNC(=O)C1=C(C)C(=O)OC12CCN(S(C)(=O)=O)CC2	17.5
CCC(=O)Nc1ccc(S(=O)(=O)N2CCC3(CC2)Nc2ccccc2-n2cccc23)cc1	7.8
Cc1ccc(S(=O)(=O)N2C[C@H]3C[C@H](NC(=O)C4CCCCC4)[C@H]3C2)cc1	-19.6
CCS(=O)(=O)N1CCCn2cnc(COCC3CC3)c2C1	-10.0
O=C(CSc1nnc(Cc2ccccc2)o1)c1ccccc1	14.0
O=S(=O)(NC1CCCC1)c1ccc(S(=O)(=O)NC2CCCc3ccccc32)cc1 (stereo not given)	-51.7
Cc1cc(S(=O)(=O)NCCc2sc(-c3ccc(F)cc3)nc2C)ccc1F	-55.6
O=C(CCC1N=C2c3ccccc3N=C(SCc3cccc(F)c3)N2C1=O)NCc1ccc(F)cc1 (stereo not given)	3.9
CC(C)c1cc(C2CCN(C(=O)CCN3CCCCO3)CC2)[nH]n1	-4.9
O=C(Nc1cccc(Cn2cccn2)c1)C(c1ccc(F)cc1)N1CCOCC1 (stereo not given)	4.3
Cc1cc2nnc(SCc3cc(=O)[nH]c4ccccc34)n2c2ccccc12	-3.0
Cc1ccc2cc(CN3CCN(CCn4cncn4)CC3)c(=O)[nH]c2c1	8.2
CC(=O)c1[nH]c(C)c(C(=O)N2CC(OCc3ccccc3F)C2)c1C	2.7
CCN1C(=O)N(C2Cc3ccccc3C2)C(=O)C12CCN(Cc1cnc(-c3ccccc3)s1)CC2	-1.1
